High-throughput results as filed in PubChem BioAssay.
Cruzain Triton: cruzain (T. cruzi) inhibition with detergent; Potency, µM, inactives show max response, negative = inhibition, usual class: inhibitors; 0.43% of 200,000 active; AID 1478; purified cruzain, Z-FR-AMC fluorescence, 0.01% Triton; active = well fitted curve in the direction sought with a large enough effect; inconclusive = small, poorly fitted or top-dose-only effect, or another doubt; inactive = no such curve, though single readings can be large; an effect the other way counts as inactive or inconclusive;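 also: plate controls were neutral wells for no effect and buffer without enzyme for full effect; nearly all actives have a fitted effect of over 40% in size; top concentration of the series not given in the record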
Target sequence (P25779 123-467 limits assumed): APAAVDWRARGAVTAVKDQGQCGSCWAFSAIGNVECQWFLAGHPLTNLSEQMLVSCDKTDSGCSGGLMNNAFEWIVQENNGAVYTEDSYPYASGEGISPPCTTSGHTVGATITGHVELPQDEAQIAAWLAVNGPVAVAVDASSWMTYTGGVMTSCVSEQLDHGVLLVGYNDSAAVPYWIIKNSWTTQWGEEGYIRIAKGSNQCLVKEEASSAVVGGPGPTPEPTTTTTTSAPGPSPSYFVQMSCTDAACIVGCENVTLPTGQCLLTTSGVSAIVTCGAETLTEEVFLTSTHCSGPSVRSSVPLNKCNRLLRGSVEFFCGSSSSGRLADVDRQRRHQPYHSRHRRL
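Read-out: AMC fluorescence (360 nm excitation, 450 nm emission), four reads over 2 min, first-to-third difference used. Conditions: cruzain 1.5 nM, Z-FR-AMC 2 uM, pH 5.5 acetate, 5 mM DTT, 0.01% Triton X-100.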
RE007 growth inh: less growth of the S. pombe RE007 Vpr strain; S. pombe RE007 Vpr strain, BacTiter-Glo ATP luminescence, 24 h; control for the full effect not named in the record; Potency, µM (top dose mostly 92.2 µM), for inactives: top-dose activity change, negative = less growth; 0.21% of 360,000 active; active = well fitted falling curve with a large enough effect; inconclusive = small, poorly fitted or top-dose-only effect; inactive = no such curve, though single readings can be large or run the other way;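 also: % is scaled to controls: 0 for no effect and ±100 for the full control effect; nearly all actives have a fitted effect of over 50% in size; the assay follows cell death caused by Vpr and the record does not say whether a fall means rescue or toxicity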
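Fission yeast RE007 carrying one integrated HIV-1 vpr copy, seeded at OD 0.01 in PMG+AL medium with 23 nL pinned compound. Grown 24 h at 30 degrees; viability read by BacTiter-Glo luminescence after 5 min.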
StopGo reporter: lowers the luciferase signal of an FMDV 2A StopGo reporter; human cells with a luciferase reporter of 2A StopGo recoding; control for the full effect not named in the record; Potency, µM (highest dose often 57.9 µM), without a hit: top-dose signal change, negative = less light; 1.2% of 410,000 active; AID 1159524; active = well fitted falling curve with a large enough effect; inconclusive = small, poorly fitted or top-dose-only effect; inactive = no such curve, though single readings can be large or run the other way; tested in HEK293T cells; also: % is scaled to controls: 0 for no effect and ±100 for the full control effect; nearly all actives have a fitted effect of over 45% in size; luciferase light after 4 h
Lassa entry inh: inhibitors of Lassa virus binding or cell entry; Lassa virus pseudotype entry inhibition, cell reporter; control for the full effect not named in the record; 1.2% of 300,000 active; Potency, µM (highest dose often 37.9 µM), for the others: top-dose activity change, negative = inhibition, hits mostly inhibitors; active means well fitted inhibition curve with a large enough effect; inconclusive means small, poorly fitted or top-dose-only effect, or effect the other way; inactive means flat fitted curve, though single readings scatter; tested in HEK293 cells; also: % is scaled to controls: 0 for no effect and ±100 for the full control effect; nearly all actives have a fitted effect of over 50% in size; luciferase read-out
Cruzain inh noDet: blocks cruzain activity in detergent-free assay. P25779. 2.3% of 200,000 active. AID 1476. purified cruzain, Z-FR-AMC fluorescence, no detergent. Potency, µM, inactives show max response, negative = inhibition, most hits filed as inhibitors; active = well fitted curve in the direction sought with a large enough effect; inconclusive = small, poorly fitted or top-dose-only effect, or another doubt; inactive = no such curve, though single readings can be large; an effect the other way counts as inactive or inconclusive;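 also: plate controls were enzyme without inhibitor for no effect and buffer without enzyme for full effect; nearly all actives have a fitted effect of over 40% in size; top concentration of the series not given in the record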
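Detergent-free condition (0.00005% Triton X-100) in acetate buffer pH 5.5 with DTT. 1.5 nM enzyme and compound were pre-mixed 15 min, then 2 uM Z-FR-AMC substrate added; reaction progress from fluorescence change between first and third reads (60 s).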
SARS PLP yeast: inhibitors of SARS-CoV papain-like protease in yeast. S. cerevisiae expressing SARS-CoV PLpro, growth rescue; control for the full effect not named in the record. 0.19% of 330,000 active. AID 485353. Potency, µM (highest dose often 32.9 µM), inactives show top-dose activity, positive = growth rescue; also: 0% is about no effect; nearly all actives have a fitted effect of over 55% in size; growth read by luminescence after 48 h
NS1 inh: blocks influenza NS1 protein function | AID 2326 | 0.4% of 270,000 active | Potency, µM (doses to about 46.1 µM), for inactives: at the top dose activity, positive = more growth | S. cerevisiae slowed by influenza A NS1, growth recovery by OD600; also: actives are rising curves; nearly all actives have a fitted effect of over 50% in size
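Compounds were scored for reversing the slow growth caused by influenza A NS1 in S. cerevisiae, measured by optical density at 600 nm. Assay medium contained 2% galactose at pH 6.0; NS1-free yeast of the same strain were the positive control.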
MARV entry inh: inhibitors of Marburg virus binding or cell entry; Potency, µM (highest dose often 37.8 µM), without a hit: at the highest dose activity change, negative = inhibition, most hits filed as inhibitors; AID 540276; Marburg virus pseudotyped entry inhibition, cell reporter; control for the full effect not named in the record; about a third of the inactives were read at about 46 µM; 1.8% of 300,000 active; active = well fitted inhibition curve with a large enough effect; inconclusive = small, poorly fitted or top-dose-only effect, or effect the other way; inactive = flat fitted curve, though single readings scatter; tested in HEK293 cells; about a fifth of its hits are not listed in these tables; also: % is scaled to controls: 0 for no effect and ±100 for the full control effect; luciferase read-out
An asterisk follows results filed as active; ? = inconclusive; . = not tested or not shown; & = joins results of further samples; [ ] = dose if it differs, or a comment. Unless noted, calls follow the shape of the dose curve; as a rule, active means well fitted rising curve with a large enough effect; inconclusive means small, poorly fitted or top-dose-only effect; inactive means no such curve, though single readings can be large or run the other way. Potency is read from the fitted curve at half-maximal effect.

SMILES	Cruzain Triton	RE007 growth inh	StopGo reporter	Lassa entry inh	Cruzain inh noDet	SARS PLP yeast	NS1 inh	MARV entry inh
CCN(CC)c1ccc(/C=C/C(=O)C2C(=O)C=C(C)OC2=O)cc1 (stereo not drawn)	.	-4%	34%[activator]	?	.	13%	.	?
CCOc1ccc(C(C)=O)cc1N1C(=O)C2C(C1=O)C1C=CC2C12CC2 (stereo not drawn)	7.4%	-12%	.	2%	8%	6%	11%	1%
O=C1c2ccccc2C(=O)N1CCCCN(C(=O)c1cc([N+](=O)[O-])cc([N+](=O)[O-])c1)c1ccc(Cl)cc1	-1.1%	-9%	-12%	0%	-26%	-15%	24%	?
COc1ccc(CCNC(=O)Cc2ccc(OC)c(OC)c2)cc1OC	.	18%	-14%	.	.	1%	3%	.
COc1cc(C2C(C(=O)OC(C)C)=C(C)N=C3SCCC(=O)N32)ccc1OCc1ccccc1 (stereo not drawn)	-5.9%	.	-17%	-26%[46.1 µM]	15%	.	.	?
CCN1C(=O)C(C(=O)c2ccccc2)SC1=S (stereo not drawn)	.	-24%	?	.	.	1%	.	-11%[46.1 µM]
CCCCC(=O)N1CC2(C)CN(C(=O)CCCC)CC(C)(C1)C2=O	-2.3%	-7%	-19%	-2%	8%	-12%	-9%	-7%
Cc1cc(C)cc(NS(=O)(=O)c2ccc(F)cc2)c1	.	13%	48%[activator]	-1%	.	-2%	-8%	?
CCOC(=O)c1c(NC(=O)c2ccc(S(=O)(=O)N3CCC(C)CC3)cc2)sc2c1CCN(C(C)C)C2	0.3%	.	-19%	1%[46.1 µM]	17%	.	.	.
Cc1cc2cc3c(=O)[nH]c(=O)[nH]c3nc2cc1C	1.4%	.	.	.	9%	3%	-5%&9%	.
Cc1ccc(C(=O)N[C@@H](C)CN2C3=NC[C@H](C(C)C)N3C[C@H]2Cc2ccc(O)cc2)cc1Br	.	-28%	-9%	.	.	16%	-6%	.
CCc1ccc(NC(=O)Cn2c(=O)c3cc(Cl)ccc3n3nncc23)cc1	-0.7%	.	0%	1%[46.1 µM]	9%	.	.	?
O=c1c2c(nc3cc(-c4cccc(Cl)c4)[nH]n13)CCCC2	.	0%	-61%	4.5µM*	.	0%	-4%	?
Cc1ccc(S(=O)(=O)NCCN2CCOCC2)c(C)c1C	.	3%	59%[activator]	-1%[46.1 µM]	.	0%	-4%	?
CC(=O)Nc1ccc(NC(=O)C2CCCN(c3ncccn3)C2)cc1 (stereo not drawn)	-1.5%	-18%	14%	11%	3%	-7%	-9%	17%
C=CCc1cccc2cc(C(=O)NCc3cccnc3)c(=O)oc12	-9.1%	-15%	.	-14%	-6%	-2%	-9%	5%
COc1ccc(OC)c(C(=O)CSc2nc3ncccc3[nH]2)c1	1.1%	11%	-19%	0%	6%	-10%	?	-24%
COc1ccc(NC(=O)Nc2ccc3nsnc3c2)cc1	-7.2%	8%	.	11%	1%	-3%	-7%	?
O=C(OCC(=O)N1CCN(C(=O)c2ccco2)CC1)c1ccc(Cl)c(Cl)c1	.	15%	0%	0%	.	0%	.	26%
CC1CCCCN1Cc1cccnc1 (stereo not drawn)	.	13%	-19%	-17%[46.1 µM]	.	-2%	.	1%[46.1 µM]
COc1ccc(Cn2c(CO)cnc2SCC(=O)NCc2ccco2)cc1	-0.9%	.	7%	1%[46.1 µM]	-5%	.	.	.
Cc1[nH]c(C)c(S(=O)(=O)NCc2ccc(F)cc2)c1C(=O)N1CCCC1	.	18%	14%	.	.	22%	-7%	.
O=C(Nc1nccs1)c1ccc(S(=O)(=O)c2ccccc2)cc1	-0.1%	-1%	2%	-14%	-18%	-1%	5%	-8%
COc1cccc(-n2nc(C(N)=O)c(O)cc2=O)c1	.	3%	12%	10%[46.1 µM]	.	0%	2%	2%[46.1 µM]
Cc1ccc(C)c(NC(=S)NC(C)C(c2cccs2)N2CCOCC2)c1 (stereo not drawn)	-1.3%	4%	0%	6%	2%	-3%	31%	20%
O=C(NC1CS(=O)(=O)CC1NCc1ccco1)c1ccccc1 (stereo not drawn)	0.7%	-11%	-8%	-2%	-2%	6%	-4%	21%
CC1CCN(C(=O)C2COc3ccccc3C2)CC1 (stereo not drawn)	-0.4%	.	14%	-28%[46.1 µM]	-11%	.	.	.
CN(C)S(=O)(=O)c1ccc(NC(=O)CCCNC(=O)c2ccc(Cl)cc2)cc1	.	9%	-8%	.	.	1%	3%	.
Cc1ccc(C)n1-c1nccc(-c2cccs2)n1	-11%	-20%	-10%	10%	-4%	3%	21%	7%
O=S(=O)(c1ccc(Cl)cc1)N1CCC(n2cnc3cc(C(F)(F)F)ccc32)CC1	.	11%	?	-17%	.	.	.	-40%
COc1ccc(C(=O)NNC(=O)CN(C)S(=O)(=O)c2ccc(Cl)cc2)c(OC)c1OC	.	9%	2%	8%[46.1 µM]	.	-1%	.	-3%
COc1cc(/C=C2/N=C(c3ccccc3F)OC2=O)cc(Cl)c1OS(C)(=O)=O	6.2%	-9%	-12%	18%	-8%	2%	22%	?
CC1CCN(c2nc(-c3ccccc3)c(C#N)c(=O)[nH]2)CC1	4.9%	-11%	11%	-8%	-5%	3%	-6%	4%
CCOc1ccc(NC(=O)c2c(NCc3sccc3C)sc3c2CCCCC3)cc1	-25%	.	23%	-21%[46.1 µM]	10%	.	.	.
CCN(c1ccccc1)S(=O)(=O)c1ccc(C(=O)N2CCCC(C(F)(F)F)C2)cc1 (stereo not drawn)	.	-6%	-25%	-9%	.	-2%	.	-25%
COC(=O)CCC(=O)Nc1ccc2oc3c(c2c1)CCCC3	.	-9%	7%	-29%	.	-1%	4%	-3%
COc1ccc(CCNC(=O)c2cc(-c3ccncc3)nc3ccc(S(=O)(=O)N4CCOCC4)cc23)cc1OC	.	5%	6%	.	.	11%	8%	.
O=C(COc1ccc2oc(-c3ccccc3)cc(=O)c2c1)Nc1ccccc1	-11%	9%	9%	9%	32µM*	14%	-1%	-12%
O=C(Cn1cnc2c(cnn2-c2ccccc2)c1=O)N1CCOCC1	-3.5%	0%	-19%	.	9%	5%	-22%	.
CCCc1ccc(S(=O)(=O)N2CCC(c3nnnn3-c3ccc(OC)cc3)CC2)cc1	1.3%	.	-4%	5%[46.1 µM]	8%	.	.	-3%[46.1 µM]
CCOc1ccc(N(CC(=O)N2CCCCCC2)S(=O)(=O)c2ccc(F)cc2)cc1	.	6%	0%	.	.	-7%	5%	.
COC(=O)C1=CN(Cc2ccc(OC)c(OC)c2)C=C(C(=O)OC)C1c1cccc(F)c1	.	22%	?	.	.	-2%	?	.
O=C(COC(=O)CN1C(=O)C2CC=CCC2C1=O)Nc1cc(C(F)(F)F)ccc1N1CCOCC1 (stereo not drawn)	-3.2%	-5%	-19%	20%	?	-1%	-7%	-24%&-24%
O=C(c1ccc(F)cc1)N1CCN(C2=NS(=O)(=O)c3ccccc32)CC1	.	-16%	5%	.	.	0%	4%	3%[46.1 µM]
COc1ccc(CNS(=O)(=O)c2ccc3c(c2)CC(C)N3C(=O)C2CC2)cc1 (stereo not drawn)	.	5%	-27%	1%[46.1 µM]	.	-1%	-2%	?
Cc1c(CNC(=O)C2CCC(=O)N(CCc3ccccc3)C2)cnn1C (stereo not drawn)	.	1%	-8%	-2%	.	1%	20%	7%
Cc1ccc2cc(CN(CC3CCCO3)S(=O)(=O)c3cccc4nsnc34)c(=O)[nH]c2c1 (stereo not drawn)	-6.1%	0%	-7%	-25%	8%	2%	-3%	-1%&-6%
O=[N+]([O-])c1cc([N+](=O)[O-])c2cc(-c3cccnc3)[nH]c2c1	.	0%	4%	-1%[46.1 µM]	.	.	.	-9%[46.1 µM]
COC(=O)c1cc(O)c(OCc2ccccc2)c(O)c1	6.5%	3%	21%	10%	-9%	-15%	-11%	9%
CCOC(=O)C1CCCN(S(=O)(=O)c2cc3c4c(c2)CC(=O)N4CCC3)C1 (stereo not drawn)	-1.2%	.	-16%	?	8%	.	.	.
COc1ccc(N=c2ssnc2Cl)cc1	-15%	?	-21%	0%	-1%	-84%	-26%	3%
COc1ccc(-n2ccnc2SCC(=O)Nc2ccccc2)cc1	1.0%	8%	?	-2%	3%	5%	-136%	16%
COc1cc(OC)nc(-n2ncc(OC)c(Br)c2=O)n1	-2.1%	12%	-12%	3%	-7%	-11%	-5%	-24%
CC1=NN(C(=O)c2ccc(Cn3nc(C)c([N+](=O)[O-])c3C)o2)C(O)(C(F)(F)F)C1 (stereo not drawn)	-1.3%	1%	-33%	-21%	-14%	23%	4%	?
COc1ccc(-n2nnnc2-c2ccccc2)cc1	3.5%	3%	.	-24%	-1%	5%	1%	-11%
CCc1ccccc1NC(=S)N1CCN(c2ccccn2)CC1	-1.1%	-12%	?	?	5%	3%	-6%	0%
COc1ccc(CCNC(=O)c2ccc3c(c2)N(Cc2ccccc2Cl)C(=O)c2ccccc2S3)cc1OC	-1.7%	.	-8%	?	?	.	.	.
CCOc1ncccc1C(=O)N=c1sccn1C	.	2%	-14%	-2%	.	1%	0%	4%[46.1 µM]
Cc1ccc(C)c(NC(=S)N2CCC(N(C)CC3CCCO3)CC2)c1 (stereo not drawn)	3.9%	-11%	-14%	9%	1%	7%	3%	-1%
O=C1NCCN(Cc2c(F)cccc2Cl)C1CC(=O)N1CCCCO1 (stereo not drawn)	.	5%	-1%	.	.	0%	4%	.

(next part)
SMILES	Cruzain Triton	RE007 growth inh	StopGo reporter	Lassa entry inh	Cruzain inh noDet	SARS PLP yeast	NS1 inh	MARV entry inh
O=C(CN1CCN(Cc2ccc3c(c2)OCO3)CC1)Nc1ccc(F)cc1	-0.1%	7%	0%	23%	7%	-12%	4%	16%
O=C1c2cccnc2C(=O)N1Cc1ccc(F)cc1S(=O)(=O)NCc1ccco1	.	5%	-10%	.	.	-3%	-6%	.
CCSc1nnc(NC(=O)c2ccc(C)o2)s1	4.1%	-15%	65%[activator]	1%	6%	-12%	22%	16%
CS(=O)(=O)c1ccc2nc(NC(=O)Cc3ccccc3)sc2c1	.	-4%	7%	.	.	1%	?	.
CCCSc1nc2sc3c(c2c(=O)n1-c1ccc(OC)cc1)CCN(C)C3	.	-6%	-8%	-1%	.	1%	4%	?
